# Cruzain inh Det – qHTS Assay for Promiscuous and Specific Inhibitors of Cruzain (with detergent); Potency, µM, for the others: max response, negative = inhibition, usual class: inhibitors; purified cruzain, Z-FR-AMC fluorescence, 0.01% Triton; 200,000 tested, 0.43% active; Cruzipain (Trypanosoma cruzi), P25779; AID 1478, 2009;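 note: plate controls were neutral wells for no effect and buffer without enzyme for full effect; nearly all actives have a fitted effect of over 40% in size; top concentration of the series not given in the record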
# Target sequence (P25779 123-467 limits assumed): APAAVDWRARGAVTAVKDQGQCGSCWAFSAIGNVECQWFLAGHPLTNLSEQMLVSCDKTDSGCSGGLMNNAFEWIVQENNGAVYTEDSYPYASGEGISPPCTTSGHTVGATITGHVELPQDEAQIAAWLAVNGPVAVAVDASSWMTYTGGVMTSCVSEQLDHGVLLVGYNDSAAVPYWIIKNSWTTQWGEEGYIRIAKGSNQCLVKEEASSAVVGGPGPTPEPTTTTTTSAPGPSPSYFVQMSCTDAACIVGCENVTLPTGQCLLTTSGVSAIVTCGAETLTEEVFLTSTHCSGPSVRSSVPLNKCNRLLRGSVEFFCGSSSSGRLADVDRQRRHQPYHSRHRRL
#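 Steps: dispense cruzain (1.5 nM final) in acetate buffer pH 5.5 with DTT and 0.01% Triton X-100; pin-transfer compounds; incubate 15 min RT; add Z-FR-AMC (2 uM final); read fluorescence every 30 s, using the 60 s intensity change.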
# RE007 growth inh – qHTS Assay for Inhibitors of the HIV-1 protein Vpr; 360,000 tested, 0.21% active; Potency, µM (doses to about 92.2 µM), inactives show at the highest dose activity change, negative = less growth; S. pombe RE007 Vpr strain, BacTiter-Glo ATP luminescence, 24 h; control for the full effect not named in the record; active = well fitted falling curve with a large enough effect; inconclusive = small, poorly fitted or top-dose-only effect; inactive = no such curve, though single readings can be large or run the other way;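 note: % is set by controls: 0 for no effect and ±100 for the full control effect; nearly all actives have a fitted effect of over 50% in size; the assay follows cell death caused by Vpr and the record does not say whether a fall means rescue or toxicity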
#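 Fission yeast strain RE007, carrying one chromosomally integrated HIV-1 vpr copy, was seeded at OD 0.01 in PMG+AL medium with 23 nL pinned compound. After 24 h at 30 °C and 99% humidity, viability was read by BacTiter-Glo luminescence.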
# Marburg entry inh – qHTS for inhibitors of binding or entry into cells for Marburg Virus; 300,000 tested, 1.8% active; AID 540276, 2011; Potency, µM (titrated, usually from 37.8 µM), inactives show at the top dose activity change, negative = inhibition, hits mostly inhibitors; Marburg virus pseudotyped entry inhibition, cell reporter; control for the full effect not named in the record; about a third of the inactives were read at about 46 µM; active = well fitted inhibition curve with a large enough effect; inconclusive = small, poorly fitted or top-dose-only effect, or effect the other way; inactive = flat fitted curve, though single readings scatter; tested in HEK293 cells; about a fifth of its hits are not listed in these tables; note: % is set by controls: 0 for no effect and ±100 for the full control effect; luciferase read-out
# Cruzain noTriton – qHTS Assay for Promiscuous and Specific Inhibitors of Cruzain (without detergent). purified cruzain, Z-FR-AMC fluorescence, no detergent. Potency, µM, for the others: max response, negative = inhibition, hits mostly inhibitors. Cruzipain (Trypanosoma cruzi), P25779. 200,000 tested, 2.3% active;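 note: plate controls were enzyme without inhibitor for no effect and buffer without enzyme for full effect; nearly all actives have a fitted effect of over 40% in size; top concentration of the series not given in the record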
#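 Purified cruzain at 1.5 nM, pre-incubated 15 min with compound at room temperature in 100 mM sodium acetate pH 5.5, 5 mM DTT, 0.00005% Triton X-100. Reaction started with 2 uM Z-FR-AMC; AMC fluorescence increase over 60 s gives rate.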
# LASV entry inh – qHTS for Inhibitors of binding or entry into cells for Lassa Virus; Lassa virus pseudotype entry inhibition, cell reporter; control for the full effect not named in the record; Potency, µM (highest dose often 37.9 µM), for inactives: at the highest dose activity change, negative = inhibition, usual class: inhibitors; 300,000 tested, 1.2% active; AID 540256, 2011; active means well fitted inhibition curve with a large enough effect; inconclusive means small, poorly fitted or top-dose-only effect, or effect the other way; inactive means flat fitted curve, though single readings scatter; tested in HEK293 cells; note: % is set by controls: 0 for no effect and ±100 for the full control effect; nearly all actives have a fitted effect of over 50% in size; luciferase read-out
# NS1 function inh – qHTS Assay for Inhibitors of Influenza NS1 Protein Function. S. cerevisiae slowed by influenza A NS1, growth recovery by OD600. Potency, µM (top dose mostly 46.1 µM), inactives show at the highest dose activity, positive = more growth. 270,000 tested, 0.4% active; active means well fitted rising curve with a large enough effect; inconclusive means small, poorly fitted or top-dose-only effect; inactive means no such curve, though single readings can be large or run the other way; note: nearly all actives have a fitted effect of over 50% in size
#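 OD600 was taken as the measure of yeast growth restored by compound in an NS1-expressing S. cerevisiae strain. Cells had been washed out of glucose medium and diluted 1:100 into galactose -URA medium, pH 6.0.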
# SARS PLpro yeast – qHTS of Yeast-based Assay for SARS-CoV PLP; S. cerevisiae expressing SARS-CoV PLpro, growth rescue; control for the full effect not named in the record; Potency, µM (titrated, usually from 32.9 µM), for inactives: at the top dose activity, positive = growth rescue; 330,000 tested, 0.19% active; AID 485353, 2010; active means well fitted rising curve with a large enough effect; inconclusive means small, poorly fitted or top-dose-only effect; inactive means no such curve, though single readings can be large or run the other way; note: 0% is about no effect; nearly all actives have a fitted effect of over 55% in size; growth read by luminescence after 48 h
# 2A StopGo – High Throughput Screening for Foot and Mouth Disease Virus Antivirals; human cells with a luciferase reporter of 2A StopGo recoding; control for the full effect not named in the record; Potency, µM (highest dose often 57.9 µM), inactives show at the highest dose signal change, negative = less light; 410,000 tested, 1.2% active; active = well fitted falling curve with a large enough effect; inconclusive = small, poorly fitted or top-dose-only effect; inactive = no such curve, though single readings can be large or run the other way; tested in HEK293T cells; note: % is set by controls: 0 for no effect and ±100 for the full control effect; nearly all actives have a fitted effect of over 45% in size; luciferase light after 4 h
# The depositor's hits bear a star; ? = inconclusive; / = not tested or not shown; & = joins results of further samples; [ ] = dose if it differs, or a comment. Unless noted, calls come from the whole dose curve; as a rule, active = well fitted curve in the direction sought with a large enough effect; inconclusive = small, poorly fitted or top-dose-only effect, or another doubt; inactive = no such curve, though single readings can be large; an effect the other way counts as inactive or inconclusive. Potency is the fitted concentration of half-maximal effect.
SMILES,Cruzain inh Det,RE007 growth inh,Marburg entry inh,Cruzain noTriton,LASV entry inh,NS1 function inh,SARS PLpro yeast,2A StopGo
Cc1ccc(OCC(=O)Nc2ccccc2Sc2ccc(Cl)cc2)c([N+](=O)[O-])n1,-6.9%,23%,1%,1%,?,5%,-6%,?
CCN(c1ccccc1)S(=O)(=O)c1ccc(F)cc1,3.1%,8%,9%,-3%,20%[14.3 µM],-6%,-5%,1%
O=C(CCn1cnc2ccccc2c1=O)Nc1cccc(Cl)c1Cl,/,-6%,/,/,/,1%,1%,-2%
COc1cccc(C(=O)NCC(=O)N/N=C/c2cccc(OC(=O)c3ccc([N+](=O)[O-])cc3)c2)c1,-19%,-9%,0%[46.1 µM],?,0%,2%,6%,30%
CCC(=O)N1CCc2cc(S(=O)(=O)NCCC(=O)NCc3ccc(F)cc3)ccc21,/,-3%,/,/,/,-3%,0%,-17%
CCN1CCN(c2ncc3c(n2)CCN(Cc2ccc(C)s2)C3)CC1,-5.0%,/,/,0%,-18%[46.1 µM],/,/,-3%
COC(=O)c1nc(-c2ccccc2)oc1N(C)C,-22%,1%,3%,-13%,-10%,0%,1%,14%
CCOC(=O)c1cnc2c(ccc3ccccc32)c1Cl,/,-4%,16%[46.1 µM],/,13%[46.1 µM],-9%,-1%,62%[activator]
Cc1cccn2c(=O)cc(CSc3nnc(NC(=O)COc4ccc(F)cc4)s3)nc12,-1.8%,/,/,-11%,14%[46.1 µM],/,/,-16%
CCOC(=O)Cc1csc(NC(=S)NC(=O)c2ccc(Cl)cc2)n1,-7.4%,-15%,4%[46.1 µM],2%,-2%,-11%,-5%,3%
CS(=O)(=O)c1cccc(C(=O)Nc2ccccc2Cc2ccccc2)c1,/,8%,-8%[46.1 µM],/,21%,-3%,-7%,-22%
COc1ccc(-c2onc3ccc(Br)cc23)cc1,-5.2%,-1%,12%,14%,0%,-11%,17%,-9%
CCC(CC)C(=O)NN(C(=O)c1ccncc1)C1CC(=O)N(c2ccccc2)C1=O (centres undefined),/,-7%,14%[46.1 µM],/,28%[46.1 µM],4%,0%,-11%
Nc1ccc(C(=O)Nc2cccc(NC(=O)c3ccc(N)cc3)c2)cc1,/,0%,-25%,/,-10%,-4%,?,17%
C=CCNc1ncnc2c1ncn2C1OC(CO)C(O)C1O (centres undefined),6.8%,3%,14µM*,0%,?,-4%,-10%,-14%
CCC(=O)Nc1nonc1-c1nc2ccccc2n1CCC(C)C,-6.2%,-2%,?,-1%,?,21%,-7%,0%
CN(C)S(=O)(=O)c1cccc(NC(=O)c2cc3c(=O)n4ccccc4nc3s2)c1,-2.0%,9%,?,1%,11%,10%,3%,-22%
CC(C)[C@H](NC(=O)OCc1ccccc1)C(=O)OCC(=O)Nc1ccc(N2CCOCC2)cc1,/,0%,?,/,?,/,-1%,-4%
COc1ccc(CCNC(=O)C(=O)c2c[nH]c3ccccc23)cc1OC,/,-3%,/,/,/,1%,2%,-17%
COC(=O)c1c(SC)nc2ccccc2c1OCc1ccc(C)cc1,-3.5%,/,/,-14%,29%[46.1 µM],/,/,1%
Cc1ccc(Cc2nnc3n(-c4cccc(C)c4)nc(C(=O)c4ccccc4)n3c2=O)cc1,-3.7%,-28%[3.69 µM],?,?,-6%,20%,1%,-11%
C/C(=N\Nc1cccc([N+](=O)[O-])c1)c1cc2ccccc2o1,/,2%,-4%,/,17%,/,1%,64%[activator]
CNC(=O)c1ccc(C)c(NC(=O)C2=C(C)OCCS2)c1,/,-1%,/,/,/,-1%,1%,?
Cc1cccc(NC(=O)CSc2nc3ccc(NC(=O)COc4ccccc4F)cc3s2)c1,4.2%,/,-20%[46.1 µM],-15%,-3%[46.1 µM],/,/,?
CC(C)C(=O)NNC(=O)CSc1nnnn1C(C)C,/,-15%,/,/,/,6%,0%,9%
COC(CNC(=O)c1cn(C)c2ccc(S(=O)(=O)N(C)C3CCCCC3)cc2c1=O)OC,/,-13%,?,/,?,-16%,7%,13%
CCc1ccc(NC(=O)CN(c2cc(C)cc(C)c2)S(=O)(=O)c2c(C)[nH]c(=O)[nH]c2=O)cc1,-1.5%,5%,-1%&-1%[46.1 µM],26%,-2%[46.1 µM],-11%,-3%,1%&17%
c1ccc(-n2ncc3c2ncn2nc(CSc4nc5ccccc5s4)nc32)cc1,9.1%,7%,-6%[46.1 µM],-1%,?,?,-2%,-20%
Cc1cccnc1NC(=O)c1c(O)c2ccccc2n(C)c1=O,-9.3%,-12%,13%,-20%,24%,-10%,-3%,4%
CCOC(=O)c1cccc(NC(=O)Nc2ccc(OCC)cc2)c1,/,-14%,?,/,?,/,0%,11%
Cc1ccc2c(=O)c(C(=O)NCc3cccs3)c[nH]c2c1,-6.5%,12%,15%,11%,32%,6%,8%,58%[activator]
COc1cc(OC)c(C2CC(=O)N3CN(c4ccc(C)cc4)CSC3=C2C#N)cc1OC (centres undefined),-6.1%,-6%,3%,2%,19%,-143%,1%,25%
Cc1cccc(N(C)c2ccc3cc(S(=O)(=O)N4CCCC4)ccc3n2)c1,-17%,4%,?,?,-25%&-4%[46.1 µM],-37%,-6%,-10%&-22%
CCCCN1C(=O)C(=O)N(CC(=O)Nc2sc(CC)cc2C(=O)OCC)C1=O,/,-21%,-1%[46.1 µM],/,5%,/,-6%,-24%
COc1ccccc1-c1nnc(SC2CCc3ccccc3NC2=O)s1 (centres undefined),-5.9%,-13%,-28%,?,-1%,8%,-8%,?
CC(=O)c1cccc(CN2CCN(Cc3ccc(F)cc3)C(CCO)C2)c1 (centres undefined),/,-6%,/,/,/,6%,1%,-7%
COc1ccc(CC(=O)N2CCN=C2SCc2cccc([N+](=O)[O-])c2)cc1,/,2%,?,/,?,/,0%,?
O=C(COC(=O)CCc1nc2ccccc2c(=O)[nH]1)NCc1ccc(F)cc1,/,12%,-11%[46.1 µM],/,12%,-37%,-1%,-16%
COc1cc(OC)c2c(-c3ccccc3)cc(=O)oc2c1,/,4%,/,/,/,-5%,2%,-4%
Cn1cc(Cl)c(C(=O)OCC(=O)Nc2cccc(Cl)c2)n1,/,-2%,-2%[46.1 µM],/,?,1%,12%,12%
Cc1ccc(C)c(NC(=O)c2ccc3nccnc3c2)c1,/,4%,6%[46.1 µM],/,5%[46.1 µM],0%,-6%,7%
COc1ccc(Nc2cc(C)nc3ccc(OC)cc23)cc1,/,-2%,?,/,?,8%,0%,-1%
N=c1n(CCN2CCCCC2)c2ccccc2n1CC(=O)c1ccc(Cl)c(Cl)c1,/,-11%,8.9µM*,/,-21%,7%,0%,?
Cc1noc(C)c1C(=O)OCC(=O)N1CCc2ccccc21,/,1%,14%,/,6%,/,-1%,22%
C/C=C/c1ccc(OCCCN2C(=O)NC(C)(C)C2=O)c(OC)c1,5.7%,-3%,11%,?,7%,1%,3%,32%[activator]
Cc1[nH]c2ccccc2c1/C=N/NC(=O)c1ccc(N)cc1,/,2%,/,/,/,6%,0%,9%
CCC(C)[C@H](NC(=O)N1CCn2c1nc1ccccc12)C(=O)NCc1ccccc1 (some centres undefined),/,-15%,-21%[46.1 µM],/,?,-2%,4%,-10%
O=C(CSc1ccccc1C(=O)O)NC1CCCCCCC1,-6.0%,14%,5%[46.1 µM],2%,3%,14%,-3%,8%
CCn1c(=O)cc(OCC(=O)Nc2cc(OC)c(OC)c(OC)c2)c2ccccc21,-1.5%,/,?,?,3%[46.1 µM],/,/,0%
COc1ccccc1NC(=O)Nc1c(C)n(C)n(-c2ccccc2)c1=O,1.5%,-13%,5%,-13%,19%,-5%,6%,-12%
COc1ccccc1CC(=O)Nc1ccc(O)cc1C(=O)O,2.1%,15%,12%,-16%,0%,5%,-6%,15%
NS(=O)(=O)c1ccc(CNC(=O)c2ccccn2)cc1,/,-12%,/,/,/,-4%,0%,8%
CCOC(=O)c1cnn(-c2cc(C)nc3c(-c4ccccc4)c(C)nn23)c1N,2.7%,-4%,-5%,?,?,-2%,3%,-11%
COc1ccc(C)cc1NS(=O)(=O)c1cn(C)c(=O)n(C)c1=O,-0.3%,-1%,/,-4%,/,3%,-3%,29%
Cc1ccn2cc(CCNC(=O)C3CC=CCC3C(=O)O)nc2c1 (centres undefined),/,-10%,26%[46.1 µM],/,6%[46.1 µM],-1%,1%,1%
CCc1ccc(C2=NNC(=Nc3c(C)n(C)n(-c4ccccc4)c3=O)SC2)cc1,/,8%,0%[14.2 µM],/,-2%,5%,-1%,5%
Cc1cc(S(=O)(=O)NCc2ccco2)c(C)cc1Cl,/,-19%,-26%[46.1 µM],/,24%[46.1 µM],-11%,-1%,42%[activator]
COc1ccc(-c2cc(C(F)(F)F)nc(SCc3cccc(C(=O)O)c3)n2)cc1,?,-15%,2%,?,0%,19%,2%,/
CCc1noc(C)c1C(=O)Nc1sc(C(=O)N(C)C)c(C)c1C#N,/,-3%,1%,/,3%,/,/,-9%
COC(=O)COc1ccc2c(=O)c(Oc3ccccc3)c(C)oc2c1,-1.2%,-4%,-11%,12%,-5%,6%,7%,-1%

# The list continues.
SMILES,Cruzain inh Det,RE007 growth inh,Marburg entry inh,Cruzain noTriton,LASV entry inh,NS1 function inh,SARS PLpro yeast,2A StopGo
CCOc1nc(NC(C)C)nc(NC(C)C)n1,1.4%,10%,-17%,0%,-1%,7%,5%,65%[activator]
CC(=O)Nc1ccc(C2(c3ccc(NC(C)=O)cc3)NC(=O)c3ccccc32)cc1,/,4%,?,/,?,14%,0%,-17%
O=C(Nc1cc(S(=O)(=O)N2CCOCC2)ccc1N1CCCC1)C1COc2ccccc2O1 (centres undefined),/,-9%,/,/,/,?,0%,-22%
O=C(Nc1cc(Cl)ccc1N1CCCCC1)c1cccs1,-0.5%,-2%,?,-4%,0%,-6%,4%[6.58 µM],-29%
